High-throughput results (PubChem BioAssay)
YopH inh: inhibitors of Yersinia enterocolitica YopH tyrosine phosphatase; fluorescence Ex485/Em525; inhibition, %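 (about 10 µM by stock and volumes)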; 140,000 tested, 0.16% active;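 active means inhibition of 50% or more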;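 further: controls were vehicle for no effect and minimum signal wells for full effect; inactives centre near -20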
Arbovirus inh: blocks arbovirus infection | arbovirus infection cell-based antiviral screen | inhibition, % at 10 µM | 200,000 tested, 0.37% active;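 active means inhibition from about 30%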;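 further: bluetongue infection of BSR cells; cell survival read as ATP light after 72 h; 0% = infected wells without compound and 100% = uninfected wells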
Mtb betalactam: beta-lactam sensitization of Mtb H37Rv | M. tuberculosis H37Rv growth with meropenem, percent inhibition; hits of this screen are not shown here | inhibition, % at 25 µM | 330,000 tested, 0.27% active | AID 434955;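 active means about 74% or more and at least 40 points above the plate without the antibiotic, then above 30% in a dose series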;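 further: growth measured after seven days incubation then overnight dye step; 0% = bacteria only wells and 100% = bacteria with antibiotic; twin plates without the antibiotic show which effects depend on it; some results filed as inactive read as strong as hits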
RecA intein inh: inhibitors of M. tuberculosis RecA intein splicing; P9WHJ3; cell-free RecA intein splicing, fluorescence; inhibition, %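 (about 9 µM by stock and volumes)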; 290,000 tested, 0.75% active; AID 2221; in the data active means inhibition above about 30%;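 further: 0% = vehicle wells and 100% = reference inhibitor control wells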
Target sequence (P9WHJ3 whole entry, looked up): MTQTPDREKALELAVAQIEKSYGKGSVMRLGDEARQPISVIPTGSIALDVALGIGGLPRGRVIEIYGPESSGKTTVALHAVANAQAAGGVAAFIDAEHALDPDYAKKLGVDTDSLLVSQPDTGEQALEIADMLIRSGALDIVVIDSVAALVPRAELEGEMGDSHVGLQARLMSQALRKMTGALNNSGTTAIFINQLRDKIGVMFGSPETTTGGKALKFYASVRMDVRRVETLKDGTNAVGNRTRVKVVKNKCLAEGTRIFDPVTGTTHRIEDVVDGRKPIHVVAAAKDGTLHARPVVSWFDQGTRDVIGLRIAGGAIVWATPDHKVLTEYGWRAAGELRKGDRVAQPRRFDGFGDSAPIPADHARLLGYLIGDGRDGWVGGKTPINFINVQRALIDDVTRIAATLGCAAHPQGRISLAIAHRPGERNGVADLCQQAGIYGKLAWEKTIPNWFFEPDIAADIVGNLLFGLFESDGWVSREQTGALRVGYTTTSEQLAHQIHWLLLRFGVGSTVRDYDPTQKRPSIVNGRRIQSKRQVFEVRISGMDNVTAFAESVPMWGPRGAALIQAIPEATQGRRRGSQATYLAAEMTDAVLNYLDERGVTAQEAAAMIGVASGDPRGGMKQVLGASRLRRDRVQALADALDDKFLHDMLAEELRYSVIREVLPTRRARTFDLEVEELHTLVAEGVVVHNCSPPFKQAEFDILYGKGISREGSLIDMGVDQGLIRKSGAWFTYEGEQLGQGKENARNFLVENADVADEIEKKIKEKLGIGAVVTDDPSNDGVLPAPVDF
Mtb H37Rv: M. tuberculosis H37Rv growth inhibitors, H37Rv strain (AID 1626) | 220,000 tested, 0.95% active | M. tuberculosis H37Rv growth inhibition; higher % means a stronger effect | inhibition, % at 10 µM, or IC50 in µM where a hit was titrated;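 active means confirmed in a dose series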;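 further: bacteria incubated seven days before Alamar blue readout; 0% = bacteria only wells and 100% = bacteria with antibiotic wells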
Arbovirus inh repeat: further read-out of Arbovirus inh, marked with its call; inhibition, %; measured here: 10K subset replicate screen; many hits read low in the repeat;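 first of two repeat runs on a subset; 0% = infected and 100% = uninfected wells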
Starred values were filed as active, the others as inactive; x = not tested or not shown. These rows are one share of the data (hit frequency here may not be typical).

SMILES	YopH inh	Arbovirus inh	Mtb betalactam	RecA intein inh	Mtb H37Rv	others
O=[N+]([O-])c1ccc(N2CCN(C(=S)Nc3ccc(F)cc3F)CC2)cc1	x	0	5	x	11%
O=C(NCC(=O)N(Cc1ccco1)C(C(=O)NC1CCCC1)c1ccncc1)c1cccs1 (configuration not stated)	-31	-1	-3	-2.1	-4%
CCCOC(=O)Cc1c(O)c2ccccc2[nH]c1=O	-52	-1	3	-0.4	-3%
COCCNC(=O)C1CC(c2ccc(F)cc2)=NO1 (configuration not stated)	-7	-1	2	-1.5	-1%
Cc1ccc(C)c(NC(=O)C2CC(=O)N(C(C)C)C2)c1 (configuration not stated)	-37	4	-3	-1.2	-2%
CC(C)Cn1c(/C=C/c2ccccc2)nc2ccccc21	0	-23	62	-1.7	10%
Cc1cc(NC(=O)c2cn(C3CCCCC3)c(=O)c3c2c2ccccc2n3C)no1	-33	0	1	3.4	21%	Arbovirus inh repeat=-3
O=C(Nc1nccs1)c1ccc(-c2cccc([N+](=O)[O-])c2)o1	x	-6	-6	1.9	2%
CCOC(=O)c1c(NC(C)=O)sc2c1CCC(C=O)=C2Sc1ccccc1	-13	-39	8	29	7%
CC(C)N(Cc1ccccc1)C(=O)C1CCCN(c2ncnc3c2nc2n3CCCCC2)C1 (configuration not stated)	x	x	4	-9.3	x
CCOC(CC(=O)NNC(=O)c1c(-c2c(Cl)cccc2Cl)noc1C)OCC	x	x	0	1.0	-7%
COc1ccc(Cl)cc1NC(=O)CSc1nc2ccsc2c(=O)n1CC1CCC(C(=O)O)CC1 (configuration not stated)	x	x	7	-1.9	x
COC(=O)C1C2c3ccccc3OC1(C)N=c1s/c(=C/c3cnn(C)c3C)c(=O)n12 (configuration not stated)	0	-9	99	-2.6	2.4µM*
O=C(NNC(=O)c1cccnc1)Nc1ccc(Cl)c(Cl)c1	-9	8	-4	3.8	-2%
Cc1ccc2c(C)c(C(=O)Nc3c(C)n(C)n(-c4ccccc4)c3=O)oc2c1C	-3	8	8	-2.1	6%
COC(=O)c1ccc(S(=O)(=O)N2CCN(C)CC2)n1C	x	x	1	-0.1	-1%
Cc1ccc(CNC(=O)CSc2nc3[nH]ncc3c(=O)[nH]2)cc1	-10	21	-12	-0.6	-4%
COc1ccc(N(CC(=O)Nc2ccccc2OC)S(=O)(=O)c2ccccc2)cc1Cl	x	x	3	5.8	x
COc1ccccc1CN1CCN(Cc2nc(-c3ccc(C)cc3)oc2C)CC1	x	x	8	0.6	x
COc1ccc(/C=[N+](\[O-])C2N(c3ccccc3)C(=S)SC2(C)C)cc1OC (configuration not stated)	x	x	-3	-4.6	-6%
O=C(Nc1ccc(S(=O)(=O)Nc2nccs2)cc1)c1c(F)c(F)c(F)c(F)c1F	x	x	100	2.9	x
Cc1cc2ccc3ccccc3c2cc1CN(C)C	x	x	-7	-2.0	10%
Cc1ccc(-c2cc(-c3ccc(Cl)cc3)c(C#N)c(N)n2)o1	-11	-23	23	-7.7	68%
Cc1cc(NC(=O)Nc2ccc(Cl)cc2)no1	x	x	-17	4.5	x
CCSc1nnc(NC(=O)CSc2nc(CC)nc3c2c(=O)n(C)c(=O)n3C)s1	-6	3	-3	1.5	9%

By substructure, the entries above with a nitro group on carbon
SMILES	YopH inh	Arbovirus inh	Mtb betalactam	RecA intein inh	Mtb H37Rv	others
O=[N+]([O-])c1ccc(N2CCN(C(=S)Nc3ccc(F)cc3F)CC2)cc1	x	0	5	x	11%
O=C(Nc1nccs1)c1ccc(-c2cccc([N+](=O)[O-])c2)o1	x	-6	-6	1.9	2%

6 entries out of the list, sorted by molar mass, descending.
SMILES	YopH inh	Arbovirus inh	Mtb betalactam	RecA intein inh	Mtb H37Rv	others
COc1ccc(Cl)cc1NC(=O)CSc1nc2ccsc2c(=O)n1CC1CCC(C(=O)O)CC1 (configuration not stated)	x	x	7	-1.9	x
CC(C)N(Cc1ccccc1)C(=O)C1CCCN(c2ncnc3c2nc2n3CCCCC2)C1 (configuration not stated)	x	x	4	-9.3	x
CCOC(CC(=O)NNC(=O)c1c(-c2c(Cl)cccc2Cl)noc1C)OCC	x	x	0	1.0	-7%
Cc1ccc2c(C)c(C(=O)Nc3c(C)n(C)n(-c4ccccc4)c3=O)oc2c1C	-3	8	8	-2.1	6%
O=[N+]([O-])c1ccc(N2CCN(C(=S)Nc3ccc(F)cc3F)CC2)cc1	x	0	5	x	11%
Cc1cc2ccc3ccccc3c2cc1CN(C)C	x	x	-7	-2.0	10%

Fetched by compound from the list above, 3 records:
SMILES	YopH inh	Arbovirus inh	Mtb betalactam	RecA intein inh	Mtb H37Rv	others
Cc1cc(NC(=O)Nc2ccc(Cl)cc2)no1	x	x	-17	4.5	x
O=C(Nc1ccc(S(=O)(=O)Nc2nccs2)cc1)c1c(F)c(F)c(F)c(F)c1F	x	x	100	2.9	x
Cc1ccc(C)c(NC(=O)C2CC(=O)N(C(C)C)C2)c1 (configuration not stated)	-37	4	-3	-1.2	-2%

The main list resumes, repeating the 2 entries before the break.
SMILES	YopH inh	Arbovirus inh	Mtb betalactam	RecA intein inh	Mtb H37Rv	others
Cc1cc(NC(=O)Nc2ccc(Cl)cc2)no1	x	x	-17	4.5	x
CCSc1nnc(NC(=O)CSc2nc(CC)nc3c2c(=O)n(C)c(=O)n3C)s1	-6	3	-3	1.5	9%
Cc1ccc(SCc2ccc(C(=O)N3CCCC3)cc2)cc1	x	10	8	2.0	5%
COc1ccc(CCN(C(=O)C(F)(F)F)C(C(=O)NC2CCCC2)c2cccs2)cc1 (configuration not stated)	-35	-11	9	7.1	4%
CC1=C(C(=O)OCC(C)C)C(c2cccs2)NC(=S)N1 (configuration not stated)	-15	-1	-6	3.8	7%
O=[N+]([O-])c1ccc(C2(O)CN(c3ccccc3)C3=[N+]2CCS3)cc1 (configuration not stated)	x	11	1	1.3	4%
CC(NC(=O)c1cc(S(=O)(=O)N2CCOCC2)ccc1N1CCCC1)c1ccc(Cl)c(Cl)c1 (configuration not stated)	x	x	0	0.3	x
O=C(CN1CCCc2ccccc21)NC(=O)NCc1ccco1	-43	1	-16	0.9	-14%
Cc1ccc(-c2nn3c(C)nnc3c3ccccc23)cc1S(=O)(=O)N1CCN(CCO)CC1	-22	-9	-8	0.4	-8%
CC(=O)O[C@]1(C)C(=O)OC/C2=C/CN(C)CCC(OC(=O)[C@@](O)(C(C)O)C[C@H]1C)C2=O (some centres not stated)	x	x	-5	4.3	x
O=C(NC(Cc1ccccc1)C(=O)N1CCCC(C(F)(F)F)C1)c1ccccc1 (configuration not stated)	x	x	5	2.6	x
CSc1cccc(NC(=O)c2cc(S(=O)(=O)N3CCCCC3)c[nH]2)c1	x	x	5	-0.9	x
CCC1(c2ccccc2)NC(=O)N(CC(=O)Nc2ccc3c(C)cc(=O)oc3c2)C1=O (configuration not stated)	x	x	-3	-2.5	x
COC(=O)C1=C(C)N=C2SC(C#N)=C(N)N2C1c1ccc(OCc2ccccc2)cc1 (configuration not stated)	-3	-37	92	-44	6%
Cc1ccc(N(CC(O)CN2CCCC2)S(=O)(=O)c2ccccc2)cc1 (configuration not stated)	-44	6	2	1.9	-4%	Arbovirus inh repeat=0
COc1ccc(-c2nn(-c3ccccc3)cc2/C=N/O)cc1	x	x	79	-4.5	x
COc1ccc(NC(=O)CN(C)C(=O)c2ccccc2CCc2ccccc2)cc1	x	x	-14	-2.6	x
Cc1ccc(CNC(=O)c2cccc(-n3cnnn3)c2)cc1	-28	-2	-5	-1.5	7%
C[n+]1c(-c2ccccc2)c2cc(N)ccc2c2ccc(N)cc21	x	x	100	2.2	x
O=C(N/N=C/c1cccc(OC2CSC2)c1)c1ccccc1O	-25	-3	64	-0.6	2%
CCn1nc(C)c(C2C(C#N)=C(N)Oc3n[nH]c(C)c32)c1C (configuration not stated)	-17	-11	2	42*	2%
Cc1cccc(N(C)S(=O)(=O)c2ccc3c(c2)NC(=O)CC(=O)N3)c1	x	1	-1	2.5	-1%
O=C(CSc1ncnc2c1nnn2Cc1ccccc1F)NCC1CCCO1 (configuration not stated)	x	x	-5	50*	x
